Assay outcomes (PubChem BioAssay)
H5N1 CPE = antiviral screen in MDCK cells, H5N1 avian flu. cytopathic effect, luminescence, 72 h; stronger effect = higher value; no value below 0 was filed and about half of the inactive calls have no number; reference of the scale not given here. inhibition, % at 50 µM. 0.07% of 96,000 active. AID 740; in the data active means inhibition above about 25%
Active calls of the source: *; i = inactive. Only part of the results is shown (hit frequency here may not be typical).

SMILES	H5N1 CPE
CCCn1nc(CC(=O)OCC)c2ccccc2c1=O	i
CC(C)(C)NC(=O)CSC(=Nc1ccc(F)cc1)NC#N	6.3
O=C1OCCC1Sc1nnc(-c2cccc(Br)c2)o1 (stereo unspecified)	i
NC(=O)C1CCN(CCC(=O)Nc2ccc(Br)cc2)CC1	0.8
Cc1ccc(NC(=S)NC2CC3CCC(C2)N3Cc2ccco2)cc1C (stereo unspecified)	i
CCOc1ccccc1NC(=O)C1CCCN(S(=O)(=O)c2cccc3cccnc23)C1 (stereo unspecified)	2.4
COC(=O)CCc1c(C)c(C(=O)c2ccco2)c2ccccn12	2.5
CCOc1ccc(N(CC(=O)NCc2ccco2)S(=O)(=O)c2ccc(OC)c(OC)c2)cc1	i
O=Cc1c(N2CCCCCC2)nc2ccccn2c1=O	1.0
C=CCNc1nc(SCC=C)nc2ccsc12	0.8
C/C(=N\OC(=O)c1ccc(Cl)cc1)c1sc(-c2ccccc2)nc1C	i
COc1ccc(Cl)cc1CSc1n[nH]c(C)n1	1.5
Cc1c(C(=O)NCc2ccc3c(c2)OCO3)sc2nc(-c3ccccc3)cn12	1.3
COc1ccc(CCNC(=O)c2sc(=S)n(C)c2N)cc1	0.7
CC(C)(C)NC(=O)CN(C(=O)CSc1nnc(COc2ccccc2)o1)c1cccc(F)c1	i
COC(=O)c1ccc(CSc2nnc3sc4ccccc4n23)o1	11
CC(=O)OC(C(=O)NCc1ccco1)c1cccnc1 (stereo unspecified)	0.2
CC(C)CC(=O)Nc1nc2ccc(S(=O)(=O)N3CCOCC3)cc2s1	i
Cc1ccccc1OCc1nc2ccccc2c(=O)n1N	1.2
O=C(CNS(=O)(=O)c1ccccc1)OCC(=O)c1ccc(OC(=O)c2ccccc2)cc1	0.6
COc1ccc(Cn2cnc3c([N+](=O)[O-])c(C)c(C)cc32)cc1	3.0
CCOC(=O)N1CCN(C(=O)C(NS(=O)(=O)c2cccc3nsnc23)c2ccccc2)CC1 (stereo unspecified)	0.2
CCCn1c(=O)c2ccccc2n2c(SCC(=O)/C(C#N)=C(\C)N)nnc12	i
CCOc1ccccc1C(=O)N/N=C/c1cccc2cccnc12	i
O=C(NCc1csc(-c2ccccc2)n1)c1ccco1	i

Reprinted at random: three records from the list.
SMILES	H5N1 CPE
CC(C)(C)NC(=O)CSC(=Nc1ccc(F)cc1)NC#N	6.3
CCCn1c(=O)c2ccccc2n2c(SCC(=O)/C(C#N)=C(\C)N)nnc12	i
CCOc1ccc(N(CC(=O)NCc2ccco2)S(=O)(=O)c2ccc(OC)c(OC)c2)cc1	i

(listing goes on)
SMILES	H5N1 CPE
CN(C)CCNC(=O)CN1C(=O)COc2ccc(C(C)(C)C)cc21	i
COc1ccc(CNC(=O)Cn2cc([N+](=O)[O-])nc2C)cc1	i
COCCn1c(N)c(C(=O)Nc2sc3c(c2C(=O)OC)CCCC3)c2nc3ccccc3nc21	i
CCOC(=O)c1ccc(NC(=O)CCOc2ccccc2)cc1	0.3
O=C(Nc1ccccc1)N1C(=O)C2(OCCO2)c2ccccc21	i
C=CCSc1ccsc1C(=O)O	i
O=C(Nc1nnc(C2CC2)s1)c1cccc(S(=O)(=O)N2CCc3ccccc32)c1	0.7
Cc1cccc(NC(=O)Cc2coc3ccc4ccccc4c23)n1	0.3
CC(=O)C1=C(C)NC(=O)NC1c1ccccc1 (stereo unspecified)	i
Brc1ccc(CSc2nnc(-c3ccccn3)n2Cc2ccco2)cc1	i
Cn1ncc(C#N)c1/N=C/N(Cc1ccccc1)Cc1ccccc1	1.9
Cc1cc(=O)n2nc(N3CCCC(C(=O)NCCC4=CCCCC4)C3)sc2n1 (stereo unspecified)	i
Cc1c(C(=O)O)oc2c1ccc1ccccc12	0.3
N#CCCn1cc(/C=C(\C#N)c2nc3ccccc3s2)c(-c2ccc(F)cc2)n1	i
O=C(CCC(=O)Nc1ccccc1)NNC(=O)c1ccco1	i
Cc1ncc([N+](=O)[O-])n1CC(C)O (stereo unspecified)	0.6
CCCCNC(=O)c1onc(CSc2ccc(F)cc2)c1C(=O)O	i
CCOC(=O)Cn1c(=O)oc2cc(S(=O)(=O)Nc3c(C)cc(C)cc3C)ccc21	0.8
CCCCCCC(=O)Nc1nc(C)c(-c2csc(Nc3ccc(Cl)cc3)n2)s1	i
COc1ccc(N(Cc2cc3ccc(C)cc3[nH]c2=O)C(=O)c2ccco2)cc1	i
Cn1c(=O)c2c(nc(Sc3n[nH]c(N)n3)n2Cc2ccccc2Cl)n(C)c1=O	1.5
CC(C)(C)NC(=O)CC(CC(=O)O)c1ccccc1 (stereo unspecified)	0.9
Cc1ccc(Cl)cc1NC(=O)CCC(=O)Nc1cc(Cl)ccc1C	i
O=C(CCCN1C(=O)c2ccccc2C1=O)NCC1CCCO1 (stereo unspecified)	i
C=CCSC1=C(C#N)C(c2ccccc2Cl)CC(=O)N1 (stereo unspecified)	i
Going on with the list:
SMILES	H5N1 CPE
CN(C)S(=O)(=O)Nc1ccccc1C(N)=O	i
Cc1ccc(Nc2nc(N)nc(CSc3nnnn3-c3ccccc3)n2)cc1	0.8
N#CC1=C(S)N=C(N)C(c2nc(-c3ccccc3)cs2)C12CCCCC2 (stereo unspecified)	i
Cn1c(SCC(=O)Nc2ccc3nc(SCC(=O)N4CCCC4)sc3c2)nnc1-c1ccccc1	i
CN(C)C(=O)Oc1ccc(-c2nnco2)cc1	1.9
Cc1cc2cc(CNC(=O)c3cc4ccccc4o3)ccc2n1C	i
Cc1ccc(C(=O)CCNc2ccccc2)o1	i
CN(C(=O)C1CCOC1)c1nnc(-c2ccncc2)s1 (stereo unspecified)	i
N#Cc1cn(CC(=O)NCC2CCCO2)c2ccccc12 (stereo unspecified)	i
C/C(=N\NC(=O)c1ccc(Cl)cc1)c1ccc(Br)s1	0.1
CCN1CCN(Cc2ccc(C)cc2)CC1	i
O=S(=O)(/N=C(/Nc1ccc(F)cc1F)c1ccc(Cl)cc1)c1ccccc1	i
CCOC(=O)c1c(NC(=O)CCC(=O)NCc2ccco2)sc2c1CCCC2	i
COc1ccc(S(=O)(=O)N(CC(=O)NCc2ccco2)C2CCCCC2)cc1OC	0.5
OCCN1CCN(c2ncnc3c2sc2nc(N4CCOCC4)c4c(c23)CCC4)CC1	0.3
Cc1nn(-c2ccccc2)c(CC(C)(C)C(=O)O)c1C(=O)O	i
CCCCCOC(=O)C1=C(C)Nc2ncnn2C1c1cccs1 (stereo unspecified)	3.3
Cc1ccccc1NC(=O)N1C2CCC1CC(O)(c1cccnc1)C2 (stereo unspecified)	0.8
COc1cc(C2N(c3ccc(Cl)c(Cl)c3)C(=O)C3CCCN32)cc(OC)c1OC (stereo unspecified)	i
COc1cc2c(C(=O)N3CCCc4ccccc43)cn(C)c(=O)c2cc1OC	0.4
CCOC(=O)c1ccc(-n2c(=O)[nH]c3ccccc3c2=O)cc1	i
Cc1cc(C)c(C#N)c(Oc2ccc(F)cc2)n1	0.7
CC(=O)Oc1ccc(NC(=O)C2CCCCC2)c(C(=O)O)c1	i
CCOC(=O)Cc1nnn(CC(=O)OCC)n1	i
N#C/C(C(=O)c1ccccc1)=C1/CCCCCN1	i
(cont.)
SMILES	H5N1 CPE
CCOC(=O)c1ccc(NC=C2C(=O)OC3(CCCCC3)OC2=O)cc1	i
CCCOc1ccc(OCCOCCN2CCc3ccccc3C2)cc1	i
CCCCOCCCNC(=O)C1CCCCC1	0.9
CCOc1ccc(C(CC(=O)O)NC(=O)C23CC4CC(CC(C4)C2)C3)cc1 (stereo unspecified)	0.9
Cn1c2c(c(=O)n(C)c1=O)C(C(F)(F)F)(C(F)(F)F)N=C(c1ccc(Cl)cc1)N2	15
CC(=O)/C=C\c1cn(-c2ncc(C(F)(F)F)cc2Cl)c2ccccc12	i
Cc1cc2c(c(=O)n1CC1CCCO1)C(c1ccco1)C(C#N)=C(N)O2 (stereo unspecified)	0.2
CC(Sc1nc2ccccc2[nH]1)C(=O)O (stereo unspecified)	0.6
COC(=O)CN1C(=O)S/C(=C/c2cc(C)n(C)c2C)C1=O	0.6
CCSC1=C(C#N)C(c2ccc3c(c2)OCO3)C2=C(CCCC2=O)N1 (stereo unspecified)	0.6
O=C(CN1CC(c2ccccc2)CC1=O)OCc1ccccc1F (stereo unspecified)	0.6
O=C1C2C3C=CC(C4CC34)C2C(=O)N1/N=C/c1ccc(-c2ccc(F)cc2[N+](=O)[O-])o1 (stereo unspecified)	5.4
C=CCOC(=O)C1=C(C)NC(C)=C(C(=O)OCC=C)C1c1cccs1	0.4
CCOC(=O)/C(=N/Nc1ccc(Cl)cc1)S(=O)(=O)c1ccccc1	i
CCC1(C)Cc2c(sc3nc4n(c(=O)c23)CCS4)CO1 (stereo unspecified)	7.4
Cc1cc(C)c2c(=O)n(CC(=O)N3CCC(N4CCCCC4)CC3)sc2n1	1.4
CC(C)Cc1nc2oc3c(NCC4CCCO4)ncnc3c2c2c1CCC2 (stereo unspecified)	i
Cc1cc(=O)n2[nH]c(C(=O)O)nc2n1	i
Cc1nnc(SCc2nc3ccccc3nc2C)s1	i
CC(C)C1S/C(=N/N=C/c2cccs2)NC1=O (stereo unspecified)	2.0
O=C(CSc1ncnc2nc[nH]c12)Nc1ccccc1C(F)(F)F	0.4
CC1(C)CC(=O)C(C=NCCN2CCN(C(=O)Cc3ccc(F)cc3)CC2)=C(O)C1	0.0
COCCNC(=O)COc1cccc(Oc2ccccc2)c1	0.3
Cc1ccc(CNCc2cc3c(C(C)(C)C)nn(-c4ccccc4)c3[nH]c2=O)cc1	i
O=C(C1CCCN1C(=O)c1cccs1)N1CCN(Cc2ccc3c(c2)OCO3)CC1 (stereo unspecified)	0.7
Additional compounds:
SMILES	H5N1 CPE
O=C(O)c1ccccc1SC1CC(=O)N(C2CCCCC2)C1=O (stereo unspecified)	0.8
O=C(CN1CC(c2ccccc2)CC1=O)Nc1ccccc1 (stereo unspecified)	1.2
O=C(NCC1CCCO1)c1ccccc1-c1nc(-c2ccc(Cl)cc2)no1 (stereo unspecified)	2.3
Cc1cccc(/C=C2/S/C(=N/N=C3\CC4CCC3(C)C4(C)C)NC2=O)c1 (stereo unspecified)	i
Cc1ccc(C(=O)O)cc1NC(=O)C1CCCN1S(=O)(=O)c1cccc2nsnc12 (stereo unspecified)	0.9
O=C(Cn1nc(Cc2cccnc2)c2ccccc2c1=O)N1CCC2(CC1)OCCO2	0.4
CSc1nc(Sc2ccc(Cl)cc2)c2ccccc2n1	i
Cc1ccccc1N(C(=O)Cn1nnc2ccccc21)C(C(=O)NCc1ccco1)c1ccncc1 (stereo unspecified)	1.3
CC(=O)c1cccc(S(=O)(=O)N(CCCO)Cc2cc3ccc(C)cc3[nH]c2=O)c1	0.1
Cc1cc(NC(=O)COC(=O)COc2cccc3c2OC(C)(C)C3)no1	i
Cc1nc(N/N=C/c2ccccc2)nc(N(C)c2ccccc2)c1[N+](=O)[O-]	0.5
COC(=O)[C@H](CCSC)NC(=O)Nc1ccc(C)c(C)c1	i
CC1=C(C(=O)Nc2ccccc2C)C(c2ccc(C)o2)n2c(s/c(=C/c3ccccc3)c2=O)=N1 (stereo unspecified)	i
CC(C)[C@H](NC(=O)[C@@H]1CSCN1C(=O)OC(C)(C)C)C(=O)NCC1CCC(C(=O)O)CC1 (stereo partly specified)	0.4
Nc1cc(N)nc(SCCN2CCCCC2)n1	i
O=c1c2ccccc2nc(SCc2ccccc2)n1Cc1ccco1	0.5
CCOC(=O)c1cnn(-c2ccc(Cl)cc2)c1C1CCN(C(=O)OC(C)(C)C)CC1	1.4
Nc1c(-c2ccc(Cl)cc2)cnn1-c1cccc([N+](=O)[O-])c1	i
CCN(CC)CCN1C(=O)C(=O)/C(=C(/O)c2c(C)[nH]c(C(=O)OC)c2C)C1c1ccc(OC)cc1 (stereo unspecified)	i
CCOC(=O)C1CCN(C(=O)CC2C(=O)N(Cc3ccccc3)C(C)c3nc4ccccc4n32)CC1 (stereo unspecified)	0.1
O=C(NCc1ccco1)C(c1ccc(F)cc1)N(CC1CCCO1)C(=O)Cn1nnc2ccccc21 (stereo unspecified)	i
CCN(CC)CCN(CC)Cc1ccccc1Br	0.1
C=CCNC(=O)CCCCC(=O)NCC=C	0.1
COc1ccc(NC(=O)CN2CCN(CC(=O)Nc3ccccc3F)CC2)c(OC)c1	i
Cc1ccc(-c2n[nH]c(=S)n2/N=C/C=C/c2ccccc2[N+](=O)[O-])cc1	0.8

Structures from the list above containing a nitro group on carbon, in the order listed:
SMILES	H5N1 CPE
COc1ccc(Cn2cnc3c([N+](=O)[O-])c(C)c(C)cc32)cc1	3.0
COc1ccc(CNC(=O)Cn2cc([N+](=O)[O-])nc2C)cc1	i
Cc1ncc([N+](=O)[O-])n1CC(C)O (stereo unspecified)	0.6
O=C1C2C3C=CC(C4CC34)C2C(=O)N1/N=C/c1ccc(-c2ccc(F)cc2[N+](=O)[O-])o1 (stereo unspecified)	5.4
Cc1nc(N/N=C/c2ccccc2)nc(N(C)c2ccccc2)c1[N+](=O)[O-]	0.5
Nc1c(-c2ccc(Cl)cc2)cnn1-c1cccc([N+](=O)[O-])c1	i
Cc1ccc(-c2n[nH]c(=S)n2/N=C/C=C/c2ccccc2[N+](=O)[O-])cc1	0.8

The main list resumes, repeating the 6 entries before the break.
SMILES	H5N1 CPE
CCOC(=O)C1CCN(C(=O)CC2C(=O)N(Cc3ccccc3)C(C)c3nc4ccccc4n32)CC1 (stereo unspecified)	0.1
O=C(NCc1ccco1)C(c1ccc(F)cc1)N(CC1CCCO1)C(=O)Cn1nnc2ccccc21 (stereo unspecified)	i
CCN(CC)CCN(CC)Cc1ccccc1Br	0.1
C=CCNC(=O)CCCCC(=O)NCC=C	0.1
COc1ccc(NC(=O)CN2CCN(CC(=O)Nc3ccccc3F)CC2)c(OC)c1	i
Cc1ccc(-c2n[nH]c(=S)n2/N=C/C=C/c2ccccc2[N+](=O)[O-])cc1	0.8
CCOc1ccc(Nc2oc(Cc3ccccc3)nc2C#N)cc1	i
COC(=O)c1ccc(NC(=O)CSCc2ccccc2C)cc1	0.6
COC(=O)c1ccc(OCC(O)CN(CC(C)C)CC(C)C)cc1 (stereo unspecified)	i
CCn1nnc(NC(=O)c2cccnc2)n1	1.6
O=C(NCCc1ccc(S(=O)(=O)N2CCCC2)cc1)c1cccs1	3.9
CCCCC(c1nnnn1C1CCCC1)N1CCN(C2CCCC2)CC1 (stereo unspecified)	0.7
